# UUG fidelity – modulators of yeast start codon fidelity, primary screen, whole organism, S. cerevisiae, single point, plate reader. activity score, % at 18.7 µM. S. cerevisiae UUG-firefly luciferase reporter, luminescence/redox ratio. 0.13% of 350,000 active;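 active = replicate mean at a twofold rise or more, about +100% in these data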;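 also: firefly luciferase made from a UUG start codon reports start codon fidelity; reporter light over untreated wells divided by growth signal over untreated wells; some hits fall short of that in this replicate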
# CSC inhib – cancer stem cell viability inhibitors, primary screen, luminescence. cancer stem cell-like cells viability. inhibition, % at 7.5 µM. 1.1% of 300,000 active. AID 2717, 2010;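 active = mean at 75% or more and at least half the replicates too; inconclusive = mean and replicates disagree; tested in HMLE shEcad cells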;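 also: 0% = median of negative and 100% = median of positive control wells; the first replicate is given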
# eIF4H inh – human eIF4H binding inhibitors, primary screen, translation initiation inhibitor project, biochemical, uHTS, fluorescence polarization | AID 2012, 2009 | 0.94% of 290,000 active | Eukaryotic translation initiation factor 4H (Homo sapiens), Q15056 | eIF4H fluorescence polarization binding assay | inhibition, % at 35 µM;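 active = 50% or more with normal probe brightness, or confirmed in later tests; inconclusive = above 50% with abnormal brightness, or retests that disagree; inactive = below 50% or failed in later tests; about a fifth of its hits are not listed in these tables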;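 also: calls also rest on retests at 20 µM and on dose response follow-up; 0% = protein and probe with vehicle and 100% = probe without protein; strong numbers were not always called active; many hits fall short of the cut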
# MT1-MMP act inh – blockers of MT1-MMP proenzyme processing, primary screen, HT1080 RFP-PRO-GFP cells, GFP/RFP fluorescence. GFP/RFP ratio fluorescence, overnight; percent of plate control window, DMSO zero. Matrix metalloproteinase-14 (Homo sapiens), P50281. GFP/RFP ratio change, % at 20 µM. 0.061% of 360,000 active;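 active = GFP/RFP ratio change of at least 30% with cell ATP level not reduced by more than half and red fluorescence within 50% of control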; also: strong numbers were not always called active
#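 Read-out: GFP/RFP fluorescence ratio; Test system: RFP-PRO-GFP reporter HT1080 cells; Compound dosing: single-point 20 µM compound, 1% DMSO; Times: overnight compound exposure at 37 °C.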
# Env fusion inh – inhibitors of HIV-1 Env-driven cell-cell fusion, primary screen, HeLa-JRFL effector, CEM21 target cells, luciferase; inhibition, % at 12.3 µM; 1.1% of 360,000 active;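 active = mean replicate inhibition score of at least 50 and every replicate individually at or above 50; inconclusive = only one of the two criteria met; inactive = mean below 50 and not all replicates reaching 50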;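 also: 0% = plate neutral controls and 100% = maraviroc near 300 nM; one replicate is shown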
# Rce1 inh – yeast Rce1p protease inhibitors, primary screen, biochemical, fluorescence, cell-free homogeneous; yeast membranes, quenched prenylated peptide cleavage fluorescence; calls only; 0.27% of 290,000 active; AID 2563, 2010;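 active = fall in fluorescence gain of 50% or more versus controls, with final raw signal at or below 3038400; inconclusive = same 50% fall but final raw signal above 3038400; inactive = fall in fluorescence gain under 50%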;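 also: plate controls were neutral control wells for no effect and wells lacking membranes for full effect; tested at 10 µM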
# PABP FP inh – PABP poly(A) RNA binding inhibitors, primary screen, biochemical, fluorescence polarization, uHTS; inhibition, % at 35 µM; 1% of 290,000 active;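 active = 50% or more with normal probe brightness, or confirmed in later tests; inconclusive = above 50% with abnormal brightness, or retests that disagree; inactive = below 50% or failed in later tests; about a fifth of its hits are not listed in these tables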;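 also: calls also rest on retests at 20 µM and on dose response follow-up; controls were probe without protein and protein plus probe with vehicle; some compounds called inactive have numbers as strong as hits; many hits fall short of the cut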
# Target sequence (P11940 whole entry, looked up): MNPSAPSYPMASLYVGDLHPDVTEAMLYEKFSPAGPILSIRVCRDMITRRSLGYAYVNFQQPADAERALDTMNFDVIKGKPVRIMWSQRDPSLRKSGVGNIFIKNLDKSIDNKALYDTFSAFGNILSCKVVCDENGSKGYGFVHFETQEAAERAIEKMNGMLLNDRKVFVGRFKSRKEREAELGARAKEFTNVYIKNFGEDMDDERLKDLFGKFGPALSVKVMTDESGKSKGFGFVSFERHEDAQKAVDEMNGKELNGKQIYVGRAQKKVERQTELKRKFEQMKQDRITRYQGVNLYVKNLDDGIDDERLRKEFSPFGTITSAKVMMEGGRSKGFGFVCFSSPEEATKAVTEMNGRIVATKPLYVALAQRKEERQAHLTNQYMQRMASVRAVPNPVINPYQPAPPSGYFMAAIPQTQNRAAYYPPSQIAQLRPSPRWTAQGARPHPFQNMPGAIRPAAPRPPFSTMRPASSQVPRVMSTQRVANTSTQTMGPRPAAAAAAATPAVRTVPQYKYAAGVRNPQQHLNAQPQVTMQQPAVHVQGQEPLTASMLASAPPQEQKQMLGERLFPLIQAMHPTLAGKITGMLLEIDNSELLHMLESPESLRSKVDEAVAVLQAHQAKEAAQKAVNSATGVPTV
# MT1-MMP act inh RFP – further read-out of MT1-MMP act inh, marked with its call; RFP signal change, %; measured here: RFP expression control read;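 0 = vehicle wells; hits needed this value within 50% of zero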
# * = called active by the depositor; i = inactive; ? = inconclusive; · = no result given; & = joins results of further samples.
# Start of the listing, in advance, 4 compounds:
Structure | UUG fidelity | MT1-MMP act inh | Rce1 inh | MT1-MMP act inh RFP | eIF4H inh | Env fusion inh | PABP FP inh | CSC inhib
COc1ccc(S(=O)(=O)N(CC(=O)NCc2ccco2)c2ccc(F)cc2)cc1 | 5.4 | 3.9 | i | 0.7 | -2.3 | -0.9 | 3.3 | ·
COc1ccc(NC(=O)COC(=O)CC2CCCC2)cc1Cl | · | 2.8 | i | -3.0 | · | -15.8 | · | -8.8
COc1cnc(-c2ccccc2)nc1Sc1ccccc1 | -4.2 | 4.6 | i | -2.7 | -0.1 | -8.7 | 0.1 | 7.0
O=C(NC(=S)Nc1c(Cl)ccc2nsnc12)c1ccccc1F | -15.5 | · | i | · | · | -15.8 | · | 15.9

# The whole of this part, from the start:
Structure | UUG fidelity | MT1-MMP act inh | Rce1 inh | MT1-MMP act inh RFP | eIF4H inh | Env fusion inh | PABP FP inh | CSC inhib
COc1ccc(S(=O)(=O)N(CC(=O)NCc2ccco2)c2ccc(F)cc2)cc1 | 5.4 | 3.9 | i | 0.7 | -2.3 | -0.9 | 3.3 | ·
COc1ccc(NC(=O)COC(=O)CC2CCCC2)cc1Cl | · | 2.8 | i | -3.0 | · | -15.8 | · | -8.8
COc1cnc(-c2ccccc2)nc1Sc1ccccc1 | -4.2 | 4.6 | i | -2.7 | -0.1 | -8.7 | 0.1 | 7.0
O=C(NC(=S)Nc1c(Cl)ccc2nsnc12)c1ccccc1F | -15.5 | · | i | · | · | -15.8 | · | 15.9
Cn1ncc2c1NC(c1ccc(F)cc1)SCC2=O (stereo unspecified) | -22.5 | 3.9 | · | -1.4 | · | 6.1 | · | ·
O=C(NC1CCN(Cc2cccc([N+](=O)[O-])c2)CC1)c1ccccc1 | -2.0 | -4.4 | i | 2.2 | 2.5 | 12.1 | -0.1 | ·
NS(=O)(=O)c1ccc(NS(=O)(=O)c2ccc(C3CNC(=O)C3)cc2)cc1 (stereo unspecified) | -8.9 | 4.0 | · | -0.4 | 6.0 | -6.4 | -2.7 | -0.2
CS(=O)(=O)N(CC(=O)N1CCOCC1)c1cccc(Cl)c1 | -35.1 | -6.5 | · | -1.5 | · | -1.3 | · | ·
COc1ccccc1NC(=O)CN1CCC(c2nc3ccccc3[nH]2)CC1 | -16.2 | -2.7 | i | 2.0 | -5.0 | 2.0 | -10.7 | -1.1
c1ccc2c(c1)ccc1nnnn12 | -9.2 | -0.6 | i | 2.6 | · | -3.9 | · | -6.2
CCCCNC(=O)C1(C)CCC(=O)N1CCCn1ccnc1 (stereo unspecified) | -9.2 | 1.7 | · | 4.4 | · | 4.0 | · | ·
CC(C)c1nc(SCc2c(F)cccc2Cl)c2c(=O)n(C)c(=O)n(C)c2n1 | -10.0 | -6.4 | i | -12.4 | -8.9 | · | 1.5 | ·
COc1ccc(CNC(=O)C(c2ccc(C)o2)N(C(=O)c2csnn2)c2ccc(C(C)C)cc2)cc1 (stereo unspecified) | 13.7 | -1.2 | i | -4.9 | -6.3 | · | 8.4 | -0.7
COc1cccc(N2CCN(C(=O)c3ccc(CS(=O)c4ccc(Cl)cc4)o3)CC2)c1 (stereo unspecified) | -17.2 | -6.0 | i | -13.3 | -4.4 | -195.1 | 4.8 | 49.1
COCCC(=O)N1CCc2c([nH]c3ccccc23)C1C(C)(C)C (stereo unspecified) | 4.1 | -12.9 | i | -5.2 | -7.1 | 13.3 | -3.4 | 2.3
CCC1CCCCN1CCCNC(=O)Cn1c(=O)c2cccn2c2ccccc21 (stereo unspecified) | 3.4 | -2.9 | i | 2.7 | 7.2 | -0.8 | -5.1 | -10.3
Cc1cc2c(c(=O)n1C)C(Cc1ccccc1)C(C#N)=C(N)O2 (stereo unspecified) | -20.5 | -0.3 | i | 0.1 | 16.2 | -3.0 | 9.4 | -1.4
COc1ccc(OCCOC(=O)CNS(=O)(=O)c2ccc(SC)c([N+](=O)[O-])c2)cc1 | -17.9 | 0.3 | i | 1.9 | · | 5.9 | · | -8.3
CCC(=O)N1CCN=C1SCc1cc(C)ccc1C | -29.6 | 3.1 | i | 0.7 | -1.6 | -7.9 | 2.4 | -7.7
Cc1occc1C(=O)Nc1cccc(Cn2cccn2)c1 | -19.1 | -2.3 | i | -0.4 | 8.6 | -16.0 | 8.9 | -7.0
O=c1[nH]c(=O)n(-c2ccccc2)c2c1C(C(F)(F)F)(C(F)(F)F)N=C(CCC1CCCCC1)N2 | -10.5 | -19.0 | i | -25.6 | 1.1 | -24.1 | 33.5 | -29.9
Cc1cccc(NS(=O)(=O)c2ccc(OCC(=O)N3CCCC3)cc2)c1 | -9.2 | -3.4 | i | -5.3 | 0.5 | · | 11.6 | -1.4
COc1ccccc1C(=O)Nc1cccc(N(C)S(C)(=O)=O)c1 | -2.3 | 2.3 | i | 1.3 | 2.3 | · | -6.5 | -3.4
O=C(CSc1nc(O)cc(=O)n1-c1ccccc1)N1CCCCC1 | · | 3.3 | i | 0.3 | 3.4 | · | 12.3 | ·
Cc1ccc(-c2nnc(N3CCCCC3)c3ccccc23)cc1S(=O)(=O)NCC1CCCO1 (stereo unspecified) | 0.4 | -9.1 | i | -12.2 | 1.0 | · | 2.2 | ·
COC(=O)C(C)N(C(=O)c1cccc2ccccc12)c1c(C)cccc1C (stereo unspecified) | · | -7.6 | i | -11.6 | -12.2 | 77.9* | 3.6 | -3.9
O=[N+]([O-])c1ccc2nc(Cl)nc(-c3ccccc3)c2c1 | -7.9 | -3.7 | i | 3.3 | -6.9 | 5.0 | 4.1 | -10.9
COc1ccccc1NC(=S)N(Cc1ccc(C)cc1)Cc1cccnc1 | -13.8 | 1.7 | i | 2.6 | 13.1 | 4.5 | -10.1 | 1.7
CN(C(=O)CSc1ncnc2sccc12)C1CCS(=O)(=O)C1 (stereo unspecified) | 0.5 | -0.1 | · | 4.7 | · | 10.7 | · | -7.6
Cc1ccccc1N(CC(=O)Nc1ccccc1C(=O)O)S(C)(=O)=O | -5.3 | 5.0 | i | 5.5 | 2.9 | -25.7 | 9.2 | -14.9
CCSc1nnc(-c2ccccc2NC(C)=O)c(=O)[nH]1 | · | 3.5 | i | 3.5 | -1.0 | 2.8 | 4.2 | 6.1
O=C1O/C(=C/C(=O)N2CCOCC2)c2ccccc21 | -20.0 | 2.6 | · | 2.6 | -0.9 | · | -1.2 | -3.4
CCN(C(=O)COC(=O)CNC(=O)c1ccc2ccccc2c1)c1c(N)n(Cc2ccccc2)c(=O)[nH]c1=O | -12.5 | -1.2 | · | 2.2 | · | -0.7 | · | ·
Cc1cc(Cl)ccc1NC(=O)CCC(=O)O | 4.0 | 4.4 | i | 3.8 | -8.5 | 4.8 | 9.3 | -4.9
Cc1nc(-c2ccc(F)cc2)c(CC(=O)NCC(=O)Nc2ccc(F)c(F)c2)s1 | 1.3 | -0.3 | · | -0.1 | · | 9.2 | · | -1.5
O=C(CCC(=O)NCCCc1ccccc1)NCCCc1ccccc1 | · | -3.4 | i | -1.0 | -8.1 | 11.4 | 1.4 | -4.4
COCC(=O)N1CCC(n2nccc2NC(=O)CCOc2ccccc2)CC1 | 3.3 | -0.1 | i | 2.1 | 7.6 | -25.0 | -3.1 | 6.7
Cc1ccc(C)c(C(=O)Cn2c(NCCO)nc3ccccc32)c1 | -22.9 | -4.8 | i | -2.3 | -1.9 | 5.7 | 6.1 | -2.3
Cc1ccc2nc3c(cc(C(=O)NCc4ccco4)c(=N)n3C3CCCC3)c(=O)n2c1 | -21.4 | -2.1 | · | 1.4 | ? | -16.9 | ? | 23.2
CCCC(=O)Nc1nnc(CCOC)s1 | -18.8 | 3.2 | i | 0.9 | 6.2 | -7.1 | -8.0 | -15.1
CCCN1CCN(S(=O)(=O)c2ccc3c(c2)OCCO3)CC1 | · | -1.7 | · | 0.9 | -7.2 | -27.8 | 2.0 | -2.0
CCOC(=O)CN1C(=O)C(O)(CC(=O)c2cccc(OC)c2)c2ccccc21 (stereo unspecified) | 6.6 | 2.4 | i | 9.0 | 2.7 | -16.1 | 5.7 | 6.2
CC(c1ccccc1)N1CC(C(=O)Nc2nccs2)CC1=O (stereo unspecified) | -13.1 | 0.7 | i | 1.5 | 2.8 | -4.7 | -6.3 | -10.8
O=c1c2ccccc2c(/C=N/c2ncn[nH]2)c(O)n1Cc1ccccc1 | · | -0.3&-2.6 | i | -0.1&1.1 | -4.6 | -23.4&-0.8 | -3.6 | 12.7
CCN(CC)c1ccc(NC(=O)CSc2nc(C3CC3)nc3ccccc23)cc1C | -4.1 | -13.8 | i | -14.2 | 6.8 | -161.7 | 14.4 | 58.8
CC1=C(C(=O)NCc2ccco2)C2(CCC(C)CC2)OC1=O (stereo unspecified) | 13.8 | 8.4 | i | 5.7 | -4.3 | 6.4 | -18.1 | -2.0
COc1ccc(C)cc1CN(C)c1ccc(S(=O)(=O)N2CCN(C)CC2)cn1 | -7.9 | 13.2 | · | 0.7 | · | -8.9 | · | ·
C/C(=N/Nc1ccc(Cl)cc1)c1cnnc(-c2ccccc2)n1 | · | 1.2 | i | 3.9 | 4.6 | 1.8 | -2.8 | ·
CCCCOC(=O)Cn1c(-c2ccccc2)nc2ccccc2c1=O | -8.0 | -0.1 | i | 3.0 | -4.0 | 19.3 | 1.0 | 4.2
CC(C)NC(=O)NCCCCCCS(C)=O (stereo unspecified) | 30.5 | 0.6 | i | 6.5 | -4.4 | · | -8.8 | -1.2
Cc1cc(-c2ccccc2)nc(SC(C(=O)O)c2ccccc2)n1 (stereo unspecified) | 7.3 | 2.7 | i | 2.6 | -4.1 | 10.2 | 10.0 | -12.7
CCOC(=O)c1cnc(SC)nc1Nc1cccc2ccccc12 | -16.9 | -3.3 | i | -0.4 | 0.6 | 22.6 | -1.4 | 26.5
CCN(CCn1cccn1)C(=O)CC1C(=O)NCCN1CCc1ccccc1 (stereo unspecified) | -3.5 | -3.7 | i | 4.2 | -1.3 | 87.9* | 11.7 | -3.8
CC(C)(C)NC(=O)Cn1cc(C#N)c2cc(Br)ccc21 | -16.0 | -3.3 | i | -2.0 | -12.1 | · | -18.1 | 5.2
COc1ccc(S(=O)(=O)Nc2cccc(S(=O)(=O)N3CCCCC3)c2)cc1 | · | 0.8 | · | 1.5 | · | 1.6 | · | 2.5
CCOC(=O)c1c(S(=O)(=O)N2CCc3ccccc32)c(C)n(C)c1C | 9.6 | -3.5 | i | 0.6 | -20.4 | 4.6 | 2.7 | -8.2
CC1(C)CC(=O)C2=C(C1)N=c1s/c(=C/c3ccc(F)c(F)c3)c(=O)n1C2c1ccc(F)cc1 (stereo unspecified) | -13.9 | -25.5 | i | -20.9 | -6.8 | · | -8.2 | 11.8
COc1ccc(Cl)cc1C(=O)NNC(=S)NC(=O)c1cc(-c2ccccc2)nc2ccccc12 | -7.5 | 3.5 | i | -9.0 | 11.7 | 72.7* | 10.9 | -5.7
COc1ccccc1CC(=O)N1CCN(S(=O)(=O)c2ccccc2)CC1 | 0.2 | -3.4 | i | 3.0 | -2.1 | -13.8 | -0.2 | 13.5
COc1cccc(CNC(=O)CSc2ccc(-c3cccs3)nn2)c1 | · | -3.6 | i | -1.7 | 8.3 | -3.3 | -1.0 | 3.2

# Random draw from the library; 2.9% or so of the library scored in one or more.
